Compound activity (PubChem)
S aureus helic: blocks Staphylococcus aureus DNA helicase; inhibition, %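 (tested at about 80 µM)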; purified S. aureus helicase, fluorescence unwinding assay; about half of the hits fall short of the stated cut; 0.05% of 120,000 active; AID 485395;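 active means both duplicates at 50% or more, or one of them with a favoured structure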;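 further: 0% = mean of negative control wells and 100% = mean of positive control wells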
MgrA DNA FP: alters Staphylococcus aureus MgrA binding to DNA; inhibition, %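 (about 10 µg/mL by stock and volumes)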; AID 602314; fluorescence polarization; 0.13% of 84,000 active;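 active means above 50% in either of two replicates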;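 further: 0% = protein plus DNA without compound and 100% = DNA alone without protein; higher means less MgrA bound to DNA so lower polarization; one replicate is shown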
An asterisk follows results filed as active; . = not tested or not shown. These rows are one share of the data. The share of hits here may be higher or lower than overall.

Molecule	S aureus helic	MgrA DNA FP
COc1ccc(-c2ccc(C3C(C#N)=C(N)OC4=C3C(=O)CCC4)o2)cc1 (stereo unspecified)	12.0	.
O=C(Cc1ccccc1F)Oc1ccc(-c2nnco2)cc1	0.0	.
CCN(Cc1ccc(OCc2cccs2)c(OC)c1)C(=O)c1cc(C)oc1C	12.0	.
NCCSc1nc2ccccc2[nH]1	-17.0	-0.1
Fc1ccccc1-c1ncc(-c2ccc(Br)cc2)o1	.	-1.1
COC(=O)c1c(C)oc2cc(C)c(NS(=O)(=O)c3cccs3)cc12	3.0	.
COc1ccccc1C(=O)OCC(=O)C(C)(C)C	2.0	-0.4
CCN(CC)c1ccc(/C=N/NC=O)c(O)c1	-171.0	.

Remaining list, next part:
Molecule	S aureus helic	MgrA DNA FP
COc1ccc2cc(/C(C)=N/OC(=O)Nc3ccccc3)ccc2c1	.	-0.1
CC(C)NC(=O)CC1OC(=O)c2ccccc21 (stereo unspecified)	11.0	.
COc1ccc(Cl)cc1NC(=O)c1cc(-c2ccco2)on1	-12.0	.
CC1CC(C)CN(C(=O)c2cccc3c2-c2ccccc2C3=O)C1 (stereo unspecified)	9.0	.
OCCn1c(-c2ccccc2)cn2c3ccccc3nc12	9.0	-0.4
COc1ccccc1CN(C)CC(=O)NC1CCCc2ccccc21 (stereo unspecified)	25.0	.
CC(CO)(CO)N=Cc1c(O)[nH]c(=O)[nH]c1=O	9.0	-0.8
Clc1ccc(-c2nc(CSc3ccccn3)cs2)cc1	.	-1.5

Going on with the list:
Molecule	S aureus helic	MgrA DNA FP
Cc1ccccc1NC(=O)C1CC(=O)Nc2nc3ccccc3n21 (stereo unspecified)	40.0	.
COCCN=C1NN=C(c2ccc(F)cc2)CS1	10.0	.
Cc1ccc(-n2c(=O)c3c(C)c(C(=O)N(C)C)sc3n(Cc3ccc(F)cc3Cl)c2=O)cc1C	-16.0	0.4
FC(F)(F)c1cccc(Nc2nc3ccccc3[nH]2)c1	7.0	-2.0
Cc1cc(C(=O)CCC(=O)NC2CC2)c(C)s1	-19.0	.
COc1ccc(N2Cc3cccc(C(=O)NCC(OC)OC)c3C2=O)cc1	10.0	0.8
O=C(CN1C(=O)c2ccccc2C1=O)Nc1ccccc1	8.0	.
CC(=O)N1CCc2cc(S(=O)(=O)CCC(=O)N(C)c3ccc(C)cc3)ccc21	-7.0	1.0

Record cards (already shown):
`NCCSc1nc2ccccc2[nH]1` is listed with S aureus helic: -17.0; MgrA DNA FP: -0.1
`CC(C)NC(=O)CC1OC(=O)c2ccccc21` (stereo unspecified) is listed with S aureus helic: 11.0; MgrA DNA FP: .

Continued:
Molecule	S aureus helic	MgrA DNA FP
CCn1c(CNC(=O)c2ccccc2F)nnc1SCC(=O)Nc1cccc(OC)c1	1.0	-2.5
CCc1nc2c(Cl)cc(Cl)cc2c(=O)o1	1.0	-1.0
O=C1NCCCC1C(=O)N1CCN(C(=O)c2ccco2)CC1 (stereo unspecified)	7.0	.
N#CC(C#N)C(C#N)(C#N)CC(=O)C1CC2C=CC1C2 (stereo unspecified)	-74.0	.
CCN(CC)C(=O)C1CCCN(S(=O)(=O)c2ccc(OC)c(OC)c2)C1 (stereo unspecified)	15.0	-3.3
O=c1[nH]c(=O)n(C2CCCCC2)c(O)c1/C=C1\C=Nc2ccccc21	8.0	8.1
CC(=O)NN=C1CCCCCCC1	4.0	1.8
COC(=O)C1=C(C)OC(N)=C(C#N)C1c1ccccc1 (stereo unspecified)	.	2.0

(further entries)
Molecule	S aureus helic	MgrA DNA FP
CCOc1ccc(NC(=O)N(CCN(C)C)C(C)c2cccnc2)cc1 (stereo unspecified)	6.0	.
Cc1ccc(-c2n[nH]c(=O)c3ccccc23)cc1	8.0	-1.2
CCN1C(=O)C2C=CC=CC2NC1=S (stereo unspecified)	17.0	.
Nc1ccc(Cc2ccccc2)cc1	-2.0	-0.6
O=C(N/N=C/C1CC2C=CC1C2)c1ccccc1O (stereo unspecified)	2.0	.
CCOc1ccc(S(=O)(=O)Nc2nc3ccccc3nc2Nc2ccccc2)cc1	9.0	2.3
c1ccc(C2CCC(=NN3CCOCC3)CC2)cc1 (stereo unspecified)	6.0	.
CCOC(=O)CNc1ccc(F)cc1	.	-1.6

More results
Molecule	S aureus helic	MgrA DNA FP
COC(=O)C(N)CSC1CCCCO1 (stereo unspecified)	7.0	-1.9
O=C(CCN1C(=O)c2cccc([N+](=O)[O-])c2C1=O)NCc1ccco1	.	-0.8
CCCn1c(CCC(=O)N(C)c2ccccc2)nc2cc(S(=O)(=O)N3CCCC3)ccc21	-5.0	.
N#CCCn1nc(-c2ccccc2)c2ccccc2c1=O	6.0	-1.3
Cc1cnc(=O)[nH]c1SCC(=O)OCc1ccccc1	10.0	.
COc1ccc(C2NC(CC(C)C)(C(=O)O)C3C(=O)N(c4ccccc4OC)C(=O)C23)c(OC)c1 (stereo unspecified)	-17.0	.
O=C(NCCS(=O)(=O)c1ccc(Br)cc1)c1ccccc1	.	-1.4
CC(NC(=O)c1ccccc1)C(=O)O (stereo unspecified)	20.0	-3.5

Additional records:
Molecule	S aureus helic	MgrA DNA FP
c1cc2c(cc1-c1nn3cnnc3s1)OCO2	-18.0	.
CCCN1CCCc2ccccc21	-9.0	.
CN(C)/C=C1\C(=O)ON=C1c1ccccc1	.	0.2
CCOc1cc2[nH]c(=O)n(CCC(=O)NCc3ccco3)c(=O)c2cc1OCC	4.0	.
O=C(O)CCNc1ccc2c(c1)OCCO2	10.0	-7.8
COc1ccc(-c2ocnc2C(=O)N2CCN(C(=O)C(c3ccccc3)c3ccccc3)CC2)cc1	-5.0	-2.6
CSc1nnc(C2CC2)n1-c1cccc(Cl)c1	.	1.6
O=C1CC(SCc2nc3ccccc3[nH]2)C(=O)N1c1ccc(Cl)cc1 (stereo unspecified)	-2.0	4.9

Next section:
Molecule	S aureus helic	MgrA DNA FP
N#Cc1c(F)cccc1Sc1ccc(Cl)cc1	.	-3.8
CN(C)C(=O)NC(c1ccccc1)c1ccccc1	12.0	-0.8
COc1ccc(/C(N)=N/OC(=O)Oc2ccccc2)cc1	7.0	-1.1
CCCc1nn(C(=O)c2ccco2)cc1C(=O)OCC	.	-1.1
CCOC(=O)c1c(/N=C/N(C)C)sc2c1CCC2	8.0	2.5
O=C(CO/N=C/c1ccccc1O)N1CCc2ccccc21	2.0	.
Cc1ccc(N/C=C2\CCCCC2=O)nc1	-9.0	0.4
Nc1c(C(=O)O)nnn1Cc1ccccc1	1.0	.

Next part.
Molecule	S aureus helic	MgrA DNA FP
CCOc1ccc(CN2C(=O)c3ccccc3Sc3ccc(C(=O)N4CCOCC4)cc32)cc1	11.0	-0.6
Oc1c(Br)cc(Br)cc1C=Nc1ccc(Oc2ccc(Cl)cc2)cc1	.	-1.3
CC(=C\c1ccccc1)/C(C)=N/O	.	-1.1
c1ccc(-c2nnc(Cc3ccc4c(c3)OCO4)o2)cc1	-9.0	2.0
CCCOc1cccc(C2CCCCN(C)C2=O)c1 (stereo unspecified)	.	0.1
COc1ccc(C(=O)NC(C)Cc2ccccc2)cc1 (stereo unspecified)	10.0	-1.6
COc1cc(SC)ccc1C(=O)OCC(=O)c1ccccc1	-10.0	.
Cc1cc(C)cc(-n2c(C)cc(/C=C(\C#N)c3ccccc3)c2C)c1	11.0	1.2

Individual results from the list.
MgrA DNA FP result of COc1ccccc1C(=O)OCC(=O)C(C)(C)C reads -0.4
MgrA DNA FP result of CC(=O)NN=C1CCCCCCC1 reads 1.8
S aureus helic result of COc1ccc(Cl)cc1NC(=O)c1cc(-c2ccco2)on1 reads -12.0
MgrA DNA FP result of COc1ccc2cc(/C(C)=N/OC(=O)Nc3ccccc3)ccc2c1 reads -0.1
S aureus helic result of CC(=O)N1CCc2cc(S(=O)(=O)CCC(=O)N(C)c3ccc(C)cc3)ccc21 reads -7.0
S aureus helic result of COC(=O)c1c(C)oc2cc(C)c(NS(=O)(=O)c3cccs3)cc12 reads 3.0

More compounds follow:
Molecule	S aureus helic	MgrA DNA FP
Cc1ccccc1OCC(=O)N1CCN(C=O)CC1	22.0	1.1
O=C(CN1CCc2ccccc2C1)NCc1ccco1	-9.0	.
COc1ccccc1N1CCN(C2CCN(C3CCCCC3)CC2)CC1	3.0	.
COc1cc(C(N)=O)cc(I)c1OC	5.0	-2.2
CCC1CSC(Nc2c(C)cccc2C)=N1 (stereo unspecified)	26.0	.
O=C(Nc1nnc(C2CC2)s1)c1ccccc1	.	-2.3
c1ccc(-c2cnc(SCCN3CCCCC3)nn2)cc1	13.0	-2.7
COCCn1c(C)cc(C2=Nn3c(nnc3-c3ccccc3F)SC2)c1C	-1.0	.

Remaining list, next part:
Molecule	S aureus helic	MgrA DNA FP
O=C(CSc1nnc2sc3ccccc3n12)NC(=O)c1ccc(OC(F)F)cc1	5.0	.
O=C(NCCN1CCCCC1)Nc1c[nH]c2c(Cl)cccc2c1=O	12.0	-1.5
Cc1nc(N2CCCCCC2)c2ccccc2n1	5.0	-4.2
COc1ccc(C2CC(C(F)(F)F)n3nc(C(=O)NCCCn4ccnc4)c(Cl)c3N2)cc1OC (stereo unspecified)	.	2.8
O=C(NN1C(=O)/C(=C/c2cc3c(cc2[N+](=O)[O-])OCO3)SC1=S)c1ccccc1Cl	.	1.2
N#Cc1ccc(/C=N/n2c(-c3ccc(OC(F)F)cc3)csc2=NCCN2CCOCC2)cc1	-45.0	.
Cc1ccc(CNC(=O)CC2(CC(=O)O)CCCC2)cc1	15.0	.
CCOC(=O)c1c(-c2ccccc2)oc2cc(CN(C)C)c(O)c(CN(C)C)c12	-13.0	7.6

Next section:
Molecule	S aureus helic	MgrA DNA FP
Cc1sc(NC(=O)Cn2c(=O)cnc3ccccc32)c(C#N)c1C	-8.0	.
CCOC(=O)c1cccc(NC(=O)C(CC(C)C)NC(=O)C2CCCCC2)c1 (stereo unspecified)	13.0	.
Cc1ccc(C)c(N2CCN(C(=O)Cn3c(=O)oc4ccccc43)CC2)c1	-14.0	.
O=C1c2cccnc2C(=O)N1Cc1ccc(S(=O)(=O)N2CCOc3ccccc32)cc1	0.0	.
COc1cccc(C=Nc2cccc3c(=O)[nH][nH]c(=O)c23)c1O	-2.0	3.4
CCC(C)NC(=O)c1cn(CC)c(=O)c2cc(OC)c(OC)cc12 (stereo unspecified)	12.0	0.0
COc1ccc2c(c1)c1nc3cc4ccccc4cc3nc1n2Cc1ccccc1	.	1.1
Clc1nc2ccc3nsnc3c2nc1Cl	18.0	.

(listing goes on)
Molecule	S aureus helic	MgrA DNA FP
C=CCNC(=O)N1CCc2[nH]c3ccc(F)cc3c2C1	.	16.0
CNC(=S)N/N=C/c1cc(OC)c(OC)cc1OC	11.0	.
CN1/C(=C/C(=O)c2cccs2)C(C)(C)c2ccccc21	2.0	0.0
Cc1ccc(C23CC4CC(CC(C(=O)NC(C)C(N)=O)(C4)C2)C3)cc1 (stereo unspecified)	-11.0	.
CCCCn1c(C2CC(=O)N(c3ccccc3OC)C2)nc2ccccc21 (stereo unspecified)	-25.0	.
CCOC(=O)N1CCC2(CC1)Oc1ccccc1C1CC(c3ccccc3)=NN12 (stereo unspecified)	14.0	.
O=C(O)CCCc1c(-c2ccccn2)[nH]c2ccc(F)cc12	-5.0	1.8
O=c1[nH]c(O)c(N=Nc2ccccc2)s1	4.0	.

Following part.
Molecule	S aureus helic	MgrA DNA FP
CCOC(=O)c1ccc(CNCc2ccccc2)cc1	12.0	2.7
Cc1ccc(C(=O)Nc2nc3ccccc3c(=O)s2)cc1	-23.0	.
O=C(CSc1nnc2ccccn12)Nc1ccc2c(c1)OC(F)(F)O2	10.0	.
CC1(C)CC(=O)c2ccc(OCC#N)cc2O1	.	0.5
COc1ccc(C(=O)O/N=C(/N)C2COc3ccccc3O2)cc1 (stereo unspecified)	26.0	.
Cc1cc(C)c(NC(=O)c2ccncc2)c(C)c1	-8.0	2.4
O=S(=O)(c1ccc2c(c1)OCCO2)N1CCN(c2ncccn2)CC1	2.0	0.0
CS(=O)(=O)c1ccc(NC(=O)CC2OC(=O)c3ccccc32)cc1 (stereo unspecified)	-3.0	.

Carrying on:
Molecule	S aureus helic	MgrA DNA FP
O=C(O)C(Cc1c[nH]c2ccccc12)N1C(=O)CCC1=O (stereo unspecified)	-17.0	.
O=C1CC(c2ccccc2)Sc2ccccc2N1Cc1ccccc1 (stereo unspecified)	-4.0	1.1
Cc1cc(C(=O)Nc2nc(C34CC5CC(CC(C5)C3)C4)cs2)no1	6.0	-1.4
CCCOc1nc(-c2ccccc2)cc(-c2ccccc2)n1	-3.0	-0.1
C=CCN1C(=O)C2(C(C#N)=C(N)Oc3ccccc32)c2c1c1ccccc1oc2=O (stereo unspecified)	5.0	2.5
Cc1ccc(-c2cc(C(=O)Nc3cccc4c3CCCC4)[nH]n2)cc1C	5.0	2.6
COc1ccccc1C(=O)Nc1ccon1	21.0	-1.6
O=C(CC(c1ccccc1)c1cc(Cl)ccc1O)N1CCOCC1 (stereo unspecified)	-1.0	.

Carrying on:
Molecule	S aureus helic	MgrA DNA FP
O=C(O)CC1C=CS(=O)(=O)C1 (stereo unspecified)	9.0	-0.2
CC1(C)CC2CC(C)(CN2C(=O)CN2C(=O)c3ccccc3C2=O)C1 (stereo unspecified)	-3.0	0.2
CCOC(=O)NC(=S)N1CCN(c2ccccc2)CC1	3.0	-7.8
CCN(CC)C(=O)c1ccc2c(c1)NC(=O)/C(=C/c1ccccc1)S2	5.0	-2.9
CCCCC(=O)Nc1nn2c(COc3ccc(C)cc3)nnc2s1	-20.0	.
NC(=O)NC(=O)CSc1nc(N)cc(=O)[nH]1	8.0	.
CCOC(=O)c1cc(-c2ccc(S(=O)(=O)NCCCN3CCOCC3)s2)on1	7.0	.
CCOC(=O)c1ccc2c(c1)[nH]c(=S)n2CC	2.0	-0.8

Next part
Molecule	S aureus helic	MgrA DNA FP
C=CCn1c(NCc2ccccc2OC)nc2ccccc21	23.0	.
O=C1CCC(=O)N1CN1CCN(c2ccccc2)CC1	6.0	4.4
c1nc(NN2CCCCC2)c2sccc2n1	.	-1.5
CC(C)(O)C#CC(O)c1cccs1 (stereo unspecified)	2.0	.
O=C(Nc1cccc(-c2nc3cccnc3s2)c1)C1CC1	5.0	-5.8
COC(=O)c1ccccc1-c1ccc(/C=C2\SC(=O)NC2=O)o1	15.0	.
COc1ccc2nc(NNC(=O)c3ccccc3)sc2c1	6.0	.
